# Source: PubChem BioAssay
# VACV Venus inh = inhibitors of vaccinia virus (Venus reporter). Vaccinia virus Venus reporter expression, fluorescence. Potency, µM (highest dose often 36.5 µM), for inactives: at the highest dose activity change, negative = inhibition, most hits filed as inhibitors. actives 0.46% (n = 330,000). AID 720580; active means well fitted inhibition curve with a large enough effect; inconclusive means small, poorly fitted or top-dose-only effect; inactive means no such curve, though single readings can be large or run the other way; tested in A549 cells; note: nearly all actives have a fitted effect of over 30% in size; inactives centre near -10
# Vaccinia mCherry = inhibitors of vaccinia virus infection (mCherry reporter signal) | Vaccinia virus mCherry reporter infection, fluorescence; about a quarter of the inactives have no number | Potency, µM (doses to about 36.5 µM), for the others: at the top dose activity change, negative = inhibition, usual class: inhibitors | actives 0.63% (n = 310,000) | AID 720579; active = well fitted inhibition curve with a large enough effect; inconclusive = small, poorly fitted or top-dose-only effect; inactive = no such curve, though single readings can be large or run the other way; tested in A549 cells; note: nearly all actives have a fitted effect of over 35% in size; inactives centre near -10
# Active calls of the source: *; i = inactive; ? = inconclusive; · = not tested or not shown; & = joins results of further samples; [ ] = another dose, or the depositor's remark. % is set by controls: 0 for no effect and ±100 for the full control effect; potency is the fitted concentration of half-maximal effect.
# Under each structure: VACV Venus inh | Vaccinia mCherry
- CC(C)CN(C(=O)COC(=O)CSc1ccc(Br)cc1)C1CCS(=O)(=O)C1 (stereo not drawn)
  -3% | -7%
- COc1cccc(-n2ccnc2SCC(=O)Nc2nccs2)c1
  -21% | ·
- CCOC(=O)c1sc(NC(=O)CCN2C(=O)c3ccccc3C2=O)c(C(=O)OCC)c1C
  -7% | -19%
- CCCN1CCC(=O)N([C@H](CSc2ccc(C)cc2)CC(C)C)CC1
  -10% | 4%
- CC(=O)N1CCc2ccc([N+](=O)[O-])cc21
  4% | 0%
- COc1ccccc1N(CC(O)Cn1c(C)nc2ccccc21)S(=O)(=O)c1ccccc1 (stereo not drawn)
  -1% | -11%
- COc1ccc(Cn2c(=O)c3cccnc3n(CC(=O)Nc3ccc(C)c(F)c3)c2=O)cc1
  -9% | -16%
- CN1CCN(C(=S)Nc2ccc([N+](=O)[O-])cc2)CC1
  -23% | -3%
- O=[N+]([O-])c1cccc(COc2cccc(CO)c2)c1
  -9% | -20%
- Cc1cccc(C(=O)NNC(=O)c2c(O)c3ccccc3n(C)c2=O)c1
  -6% | ?
- CCCn1c(SCC(=O)Nc2cccc(Cl)c2Cl)n[nH]c1=O
  -3% | -13%
- COc1ccc(NS(=O)(=O)c2cccc(C(=O)NNC(=O)CNC(=O)c3ccccc3Cl)c2)cc1
  -14% | -21%
- COc1ccc(Cl)cc1NC(=O)CN(C)CC(=O)Nc1ccc2c(c1)OCO2
  -24% | -3%
- N[C@@H](Cc1ccc(F)cc1)C(=O)O
  -5% | -14%
- CCOC(=O)c1cc(-c2ccc(F)cc2)n(CC(=O)NCc2ccccn2)c1C
  -17% | i
- Cc1cccc(C)c1NC(=O)CSc1nnc(C2CCCCC2)o1
  -7% | -14%
- O=c1[nH]c2ccccc2c2cn(-c3ccccc3)nc12
  ? | ?
- COC(=O)c1ccc(NC(=O)NC2CCCCC2)cc1
  -12% | i
- COc1ccc(S(=O)(=O)N(C)c2ccc(C(=O)NCCC(C)C)cc2)cc1
  -7% | -11%
- C/C(=N\OC(=O)c1ccccc1F)c1nccs1
  -6% | -4%

# Brought forward from above: 5 entries, followed by the next part.
# Under each structure: VACV Venus inh | Vaccinia mCherry
- Cc1cccc(C)c1NC(=O)CSc1nnc(C2CCCCC2)o1
  -7% | -14%
- O=c1[nH]c2ccccc2c2cn(-c3ccccc3)nc12
  ? | ?
- COC(=O)c1ccc(NC(=O)NC2CCCCC2)cc1
  -12% | i
- COc1ccc(S(=O)(=O)N(C)c2ccc(C(=O)NCCC(C)C)cc2)cc1
  -7% | -11%
- C/C(=N\OC(=O)c1ccccc1F)c1nccs1
  -6% | -4%
- Cc1ccccc1OCC(=O)OCC(=O)NC1CCCC1
  -5% | i
- CC[C@]12c3[nH]c4ccc(Cl)cc4c3CCN1C(=O)[C@@H](CC(=O)NCc1ccc(OC)c(OC)c1)C[C@@H]2C(=O)N1CCN(C(=O)C2CC2)CC1
  -25% | i
- COc1ccc(NC(=O)Cn2cc(C(=O)c3ccco3)c3ccccc32)cc1
  -14% | -24%
- CC(C)(CO)CNC(=O)c1ccc(OC2CCN(C(=O)C3CC3)CC2)cc1
  -16% | -17%
- Cc1ccc(-n2ncc3c(=O)[nH]c(SCC(=O)N4CCC(C)CC4)nc32)cc1C
  -9% | i
- Cc1csc2c(N3CCN(C(=O)NC(C)(C)C)CC3)ncnc12
  -14% | i
- O=C(O)CC(NC(=O)C(c1ccccc1)c1ccccc1)c1cccc([N+](=O)[O-])c1 (stereo not drawn)
  -5% | -7%
- Cc1ccc(C)c(N2CCN(C(=O)c3ccc4nsnc4c3)CC2)c1
  -21% | ?
- CCn1cc(C(=O)c2cccs2)c2ccccc21
  -12% | 0%
- CC1(C(=O)NS(=O)(=O)C2CC2)CCN(C(=O)c2ccccc2OC(F)(F)F)C1 (stereo not drawn)
  -10% | -3%
- O=C(COC(=O)C1(c2ccccc2F)CCCC1)Nc1ncc(C(F)(F)F)cc1Cl
  ? | -21%
- Cc1ccc(OCC(=O)Nc2cccc(C(=O)OCc3cc(=O)n4cc(C)sc4n3)c2)cc1
  -15% | -29%
- COc1ccc(Cn2nc(C(=O)O)c3ccccc3c2=O)cc1F
  -10% | i
- Cc1cccc(OCC(=O)N2CCN(Cc3ccc4c(c3)OCO4)CC2)c1
  -3% | i
- CCCNC(=O)C1(C)CCCN(C(=O)c2c(C)noc2C)C1 (stereo not drawn)
  -13% | 7%
- O=C(CN1C(=O)NC(c2ccccc2)(c2ccccc2)C1=O)Nc1ccc2[nH]c(=O)[nH]c2c1
  -2% | -14%
- CCOc1ccc(N(CC(=O)N2CCOCC2)S(=O)(=O)c2ccc(Cl)cc2)cc1
  11% | -5%
- CCOc1nc(C)cc(COC)c1C(N)=O
  -3% | -6%
- COc1ccc(NC(=O)C2C3C=CC(C3)C2C(=O)NCc2ccccn2)c(OC)c1 (stereo not drawn)
  -6% | -8%
- O=C(c1cc2c(s1)-c1ccccc1OC2)N1CCN(c2ccccc2)CC1
  -14%&-11% | -9%&-13%

# Going on with the list.
SMILES	VACV Venus inh	Vaccinia mCherry
CC(=O)c1cc(C)c(OCc2cn(CC(=O)c3ccc(O)cc3)nn2)c(C)c1	-3%	-17%
O=C(O)C1C2CCC(C2)C1C(=O)NCCC1=CCCCC1 (stereo not drawn)	-11%	-21%
OCc1nc2ccccc2n1/N=C/c1cccs1	-4%[7.34 µM]	i[7.34 µM]
COc1ccccc1C(=O)Nc1cc(C)c(OCC(=O)N2CCOCC2)c(C)c1	-1%	-14%
COc1cccc(/C=C2\CC(C)Cc3c2nc2ccccc2c3C(=O)O)c1OC (stereo not drawn)	6%	5%
COc1ccc(CCC(=O)NNC(=O)c2ccc(OC)cc2)cc1	-3%	i
CCC(=O)Nc1ccc2c(c1)nc(CN1CCN(C(C)=O)CC1)n2C	1%	1%
Cc1onc(-c2ccccc2)c1C(=O)N/N=C/C=C/c1ccccc1	-8%	-22%
CCOC(=O)CSc1nnc(Cn2c(=O)sc3ccccc32)n1-c1ccccc1C	-8%	-8%
O=C(Cn1nnc(-c2ccc(Cl)cc2)n1)NCc1ccc(F)cc1	-12%	3%
O=C1CCC2(CCCC2)c2ccccc21	-3%	-14%
CC(NC(=O)CCC(=O)NC(C)C1COc2ccccc2O1)C1COc2ccccc2O1 (stereo not drawn)	-28%	·
Oc1cc(O)c(CN2CCOCC2)cc1CN1CCOCC1	-13%	-16%
CN(C(=O)COC(=O)c1cc(=O)[nH]c2ccccc12)c1ccccc1	-11%	-15%
O=c1[nH]c(/C(Cl)=C/c2cccc(C(F)(F)F)c2)nc2cc(Cl)ccc12	3%	i
COCCNc1cc(-c2ccccc2)nc2cc(-c3cccc(F)c3)nn12	-19%	?
CCCSc1nc(=S)n(Cc2ccccc2)c(C)c1C(C)=O	-17%	i
O=[N+]([O-])c1ccccc1S(=O)(=O)Oc1ccc(/C=N/n2cnnc2)cc1	?	?
CN(C(=O)CSc1nnc2[nH]c(=O)cc(-c3ccccc3)n12)c1ccccc1	-14%	i
CC(OC(=O)c1c2c(nc3ccccc13)/C(=C\c1ccc3c(c1)OCO3)CCC2)C(=O)Nc1ccc(S(N)(=O)=O)cc1 (stereo not drawn)	134%[activator]	-17%
CCCC(=O)Nc1ccccc1NC(=O)c1ccc(OCC)c(OCC)c1	-15%	-15%
C#CCOCCOCCOCCNc1nc(N2CCN(C(=O)C(Cc3cc4ccccc4[nH]3)n3cc(C(N)Cc4ccc(O)cc4)nn3)CC2)nc(N2CCN(C(=O)C(CCC(=O)O)n3cc(C(N)C(C)CC)nn3)CC2)n1 (stereo not drawn)	-11%	i
COC(=O)C1=C(c2ccc(F)cc2OCc2ccccc2)C[C@@H]2CC[C@H]1N2C(=O)NCc1ccc(Br)cc1	?	-2%
O=C1CSC(c2ccc(Cl)cc2)N1C1CCCCC1 (stereo not drawn)	-22%	·
CSc1nc(N)nc(C2CC2)n1	-4%	-9%
Cc1nnsc1C(=O)NNC(=O)c1cccc2ccccc12	9%	-6%
O=S(=O)(Nc1ccc(-c2ccc3nncn3n2)cc1)c1cc(F)ccc1F	-11%	?
CC(C)[C@H](NC(=O)C1CCN(S(=O)(=O)c2ccccc2)CC1)C(=O)NCc1ccncc1	-10%	-21%
COC(=O)Cc1ccc(NC(=S)NN2CCOCC2)cc1	-5%	-17%
O=C(Nc1ccc(F)cc1)C(c1cccc(F)c1)N1CCN(c2ccncc2)CC1 (stereo not drawn)	-4%	2%
O=C(N/N=C/C=C/c1ccccc1[N+](=O)[O-])c1cc(-c2cccnc2)nc2ccccc12	?	?
CCOC(=O)C1CCCN(C(=O)CCCn2nc(C)n3c(cc4sccc43)c2=O)C1 (stereo not drawn)	1%	i
O=C(COc1ccccc1F)Nc1ccc2nc(SCc3ccccc3)sc2c1	-11%	i
COc1cccc(C(O)C2OC(=O)c3ccccc32)c1OC (stereo not drawn)	-15%	i
COC(=O)C1=C(N)Oc2cc(C)n(CCN3CCOCC3)c(=O)c2C1c1cccnc1 (stereo not drawn)	-3%	-13%
CC[C@@H](C)[C@@H](N)C1=N[C@H](C(=O)N[C@@H](CC(C)C)C(=O)N[C@@H](CCC(=O)O)C(=O)N[C@@H](C(=O)N[C@@H]2CCCCNC(=O)[C@@H](CC(N)=O)NC(=O)[C@@H](CC(=O)O)NC(=O)[C@@H](Cc3cnc[nH]3)NC(=O)[C@@H](Cc3ccccc3)NC(=O)[C@@H]([C@H](C)CC)NC(=O)[C@@H](CCCN)NC2=O)[C@@H](C)CC)CS1	?	i
C[C@H](CO)N1C[C@H](C)[C@@H](CN(C)Cc2ccc(Cl)c(Cl)c2)Oc2c(NS(=O)(=O)c3cccs3)cccc2C1=O	?	-17%
CCCCC(=O)NC(c1cccs1)c1cc(Cl)c2cccnc2c1O (stereo not drawn)	?	?
COc1ccc(-n2c(CNC(=O)COc3ccc(Cl)cc3Cl)n[nH]c2=S)cc1	-14%	-22%
C#CCOCCOCCOCCNc1nc(N2CCN(C(=O)[C@H](CCC(=O)O)n3cc(CN)nn3)CC2)nc(N2CCN(C(=O)[C@H](CCC(=O)O)n3cc([C@@H](N)[C@H](C)CC)nn3)CC2)n1	-6%	i
COc1ccc(OCC(=O)O/N=C(\N)c2ccc(OC)c(OC)c2)cc1	-14%	i
CC1(C)CC(NCc2ccc3c(c2)OCO3)CCO1 (stereo not drawn)	0%	i
CC1CCCN(C(=O)C2CCN(Cc3ccc4c(c3)OCO4)CC2)C1 (stereo not drawn)	-4%	i
CN(C)C(CNC(=O)c1ccc(S(=O)(=O)Nc2ccccc2F)cc1)c1ccccc1 (stereo not drawn)	-11%	i
COC(=O)c1cccc(-c2ccc(/C=N/N3C(=O)C4C5C=CC(C6CC56)C4C3=O)o2)c1 (stereo not drawn)	-2%	-2%
COc1cc2nc(COc3ccc(C#N)cc3)n(CC#N)c(=O)c2cc1OC	-16%	-21%[1.46 µM]
CC1(C)CC(=O)C(C2=NC(C)(C)Cc3ccccc32)=C(O)C1	-8%	-11%
CN(C)c1cccc(C(=O)NC2CCCCCC2)c1	-24%	-30%
CC(=O)c1ccc(N=C2SCCCN2C(=O)C2CCCC2)cc1	-14%	i
NC(=O)COc1c(-c2ccccc2)oc2ccccc2c1=O	3%	-2%
C/C(=N/N=C1/NC(=O)CC(C(=O)O)S1)c1ccccc1 (stereo not drawn)	5%	-6%
CCCCc1nn2c(=O)cc(COC(=O)c3ccc(NC(=O)c4cccs4)cc3)nc2s1	-17%	-3%
Cc1cc(NC(=O)CCC(=O)N(c2ccc(F)cc2)C2(C(=O)NC3CCCCC3)CCCC2)no1	?	-22%
CCOC(=O)c1ccccc1NC(=O)Cn1c(=O)n(Cc2nc(C)no2)c(=O)c2ccccc21	-11%	-12%
COc1ccccc1NC(=O)c1cnc(Nc2ccccc2OC)c2ccccc12	-14%	i
O=C(C1=C[C@H](C2CCCCC2)C[C@H](OCc2ccc(CO)cc2)O1)N1CCN(Cc2ccc3c(c2)OCO3)CC1	-27%	?
O=C(O)CCC(=O)NNC(=O)CCC1CCCCC1	-9%	-12%
O=C(NN1C(=O)C2C3C=CC(C4CC34)C2C1=O)c1ccc(Cl)c(Cl)c1 (stereo not drawn)	?	i
CC1CCCN(S(=O)(=O)c2ccc(C(=O)Nc3nnc(-c4ccccc4Cl)o3)cc2)C1 (stereo not drawn)	-6%	0%
CCC1CN(CCNC(=O)c2ccc(N3CCOCC3)cc2)Cc2cc(OC)ccc2O1 (stereo not drawn)	-11%	-19%
COc1ccc(NC(=O)C(C)N2c3cccc4cccc(c34)S2(=O)=O)cc1OC (stereo not drawn)	-26%	?

# One compound at a time (already shown).
# CC1(C)CC(=O)C(C2=NC(C)(C)Cc3ccccc32)=C(O)C1 as listed: VACV Venus inh = -8%; Vaccinia mCherry = -11%
# CC(=O)c1ccc(N=C2SCCCN2C(=O)C2CCCC2)cc1 as listed: VACV Venus inh = -14%; Vaccinia mCherry = i
